Source: PubChem BioAssay
B2AR ag: beta2AR agonists driving receptor internalization, primary screen, cell-based, FAP fluorogen, flow cytometry | AID 504454, 2011 | response, % (concentration not given with the values) | actives 0.43% (n = 340,000) | Am2.2-beta2AR cells; reference of the scale not given here | Beta-2 adrenergic receptor (Homo sapiens), P07550;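 active means response above a set limit, near 3 SD of response in nonfluorescent compounds, cut at about 42% in these data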;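 further: stock transfer was 100 nL into about 11 µL; a reference agonist was the positive control; negative values mostly stem from fluorescent compounds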
A1 inh: caspase 3/7 activation in MEF A1-2A-BIM cells, primary screen, A1 inhibitor project, cell-based, luminescence, HTS | Caspase-Glo 3/7 luminescence, 3 h; percent of clofoctol response, vehicle zero | caspase activation, % (concentration not given with the values) | actives 0.066% (n = 330,000);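 active means over half of replicate activation scores above 10%, or exactly half above 10 with the replicate mean above 10; inconclusive means replicate mean below 10 yet half the replicates above 10; inactive means over half of replicates below 10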;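 further: wells of about 30 µL received 50 nL stock; many hits fall short of the cut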
Vif TR-FRET: inhibitors of Vif binding to APOBEC3G peptide, primary screen, biochemical, TR-FRET, GST-Vif 1-94, biotin-A3G peptide, dose response retest (AID 1117319). Virion infectivity factor (Human immunodeficiency virus type 1 group M subtype B (isolate …. TR-FRET GST-Vif / biotin-A3G peptide binding; higher % means a stronger effect; test concentration not given here; strong numbers were not always called active. inhibition, %, or IC50 in µM where a hit was titrated. actives 0.57% (n = 260,000);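 active means above the screen mean plus three standard deviations and confirmed in dose response; inconclusive means results disagree or hit not tested in dose response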;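 further: Vif residues 1-94 fused to GST binding biotinylated APOBEC3G peptide 110-148; 0% = full assay without inhibitor and 100% = GST in place of GST-Vif; retest series ran down from 100 µM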
E coli growth: E. coli growth inhibition, primary screen, OD600; actives 0.21% (n = 330,000); OD600 absorbance (concentration not given with the values); AID 1053175, 2014; Escherichia coli growth, 23 h; active compounds read low;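 active means OD600 absorbance below the run mean of sample wells minus 3.6 SD, in any replicate, cut at about 0.56 in these data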;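 further: stock transfer was 300 nL into about 60 µL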
HNF4A DNA FP: change in binding of human HNF4A to DNA, primary screen, biochemical, fluorescence polarization, FITC-DNA | activity change, % at 10 µM | actives 0.3% (n = 360,000) | 1 h; in the data active means activity change above about 30%, passing the limit was not always enough;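 further: controls were the assay level and a saturating level of protein; the project sought stronger binding though the title names inhibitors; some compounds called inactive have numbers as strong as hits; positive values seem to mean higher polarization but the record does not say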
Target sequence (P41235 whole entry, looked up): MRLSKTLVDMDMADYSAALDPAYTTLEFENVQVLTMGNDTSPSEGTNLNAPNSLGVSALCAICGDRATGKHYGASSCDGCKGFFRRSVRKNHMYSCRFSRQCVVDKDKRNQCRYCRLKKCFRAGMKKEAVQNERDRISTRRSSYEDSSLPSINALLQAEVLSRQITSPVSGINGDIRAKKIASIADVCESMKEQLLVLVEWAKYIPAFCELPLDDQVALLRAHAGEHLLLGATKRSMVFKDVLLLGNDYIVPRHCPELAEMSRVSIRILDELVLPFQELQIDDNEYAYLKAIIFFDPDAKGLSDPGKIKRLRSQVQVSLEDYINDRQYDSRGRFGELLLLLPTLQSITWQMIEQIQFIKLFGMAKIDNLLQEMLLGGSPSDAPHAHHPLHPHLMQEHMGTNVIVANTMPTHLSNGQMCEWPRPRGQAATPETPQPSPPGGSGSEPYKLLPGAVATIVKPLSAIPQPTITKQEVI
LANA-H2A inh: blockers of LANA interaction with H2A/H2B – biochemical, FP readout, HTS, primary screen; AID 2629, 2010; cell-free LANA-H2A/H2B peptide, fluorescence polarization; inhibition, % (no concentration beside the values); Protein LANA1 (Human herpesvirus 8 type P (isolate GK18)), Q9QR71; actives 0.6% (n = 320,000); in the data active means inhibition mostly above about 10%, no sharp cut-off; inactive means mostly below about 6.7%;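 further: stock transfer was 7.5 nL into about 10 µL; 0% = median of vehicle wells and 100% = median of positive control wells; one replicate is shown; the record names a cut of 25% in any replicate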
UCH37 DUB inh: inhibitors of human UCH37 deubiquitinase, primary screen, biochemical, Ub-AMC cleavage, fluorescence | Ubiquitin carboxyl-terminal hydrolase isozyme L5 (Homo sapiens), Q9Y5K5 | purified proteasome/UCH37 | inhibition, % (no concentration beside the values) | actives 0.33% (n = 330,000);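 active means mean of two replicates above 20%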;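 further: 0% = compound-free wells with enzyme and 100% = wells lacking proteasome; stock transfer was 100 nL into about 20 µL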
Target sequence (Q9Y5K5 whole entry, looked up): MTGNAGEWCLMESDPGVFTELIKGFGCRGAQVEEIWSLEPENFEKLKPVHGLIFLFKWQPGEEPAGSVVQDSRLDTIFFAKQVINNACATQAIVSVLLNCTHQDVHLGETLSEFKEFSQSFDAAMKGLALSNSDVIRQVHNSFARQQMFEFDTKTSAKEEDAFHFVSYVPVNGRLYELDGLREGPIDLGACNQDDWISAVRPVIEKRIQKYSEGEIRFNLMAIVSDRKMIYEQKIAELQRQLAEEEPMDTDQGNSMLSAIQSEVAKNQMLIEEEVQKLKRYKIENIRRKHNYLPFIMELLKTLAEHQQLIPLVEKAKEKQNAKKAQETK
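Signal – fluorescence, ex 355 nm, em 460 nm · System – Proteasome-bound UCH37 · Input – 0.15 nM proteasome as dispensed · Timing – 30 min preincubation with enzyme, 25 min cleavage at room temperature · Read-out basis – percent inhibition of cleavage signal versus uninhibited and no-proteasome wells · Medium – Tris-HCl pH 7.4 with ATP-MgCl2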
* = called active by the depositor; ? = inconclusive; . = not tested or not shown; & = joins results of further samples.

SMILES	B2AR ag	A1 inh	Vif TR-FRET	E coli growth	HNF4A DNA FP	LANA-H2A inh	UCH37 DUB inh
CCOc1cc(C2C(C(=O)OCC(C)C)=C(C)N=C3SCCC(=O)N32)ccc1OC(C)=O (stereo unspecified)	-9	0.5	3%	0.72	-0.1	-5.5	4.1
Cc1cccc(OCC(O)CN2CCc3ccccc3C2)c1 (stereo unspecified)	1	-0.8	.	0.66	-4.8	-2.1	4.7
COC(=O)NC1CSCC1OC(=O)c1ccc(Br)cc1 (stereo unspecified)	5	0.3	20%	0.69	-3.0	0.5	3.1
CCCC(=O)Nc1ccc(C(=O)Nc2cc(C(F)(F)F)ccc2Cl)cc1	-5	0.0	6%	0.73	0.3	-1.2	2.7
Cn1c(NCCO)nc2c1c(=O)n(Cc1ccc(F)cc1)c(=O)n2C	3	0.5	2%	0.65	1.1	3.3	0.3
CCCN1CCN(C(c2cc3cc(OCC)ccc3[nH]c2=O)c2nnnn2C2CCCCC2)CC1 (stereo unspecified)	-13	0.1	1%&-7%	0.64	2.8	0.4	-139
N#Cc1ccc(C(=O)N/N=C/c2cn(CC(=O)O)c3ccccc23)c(F)c1	2	0.0	.	.	3.1	1.4	.
O=C(NC1(C(F)(F)F)N=C2SCCN2C1=O)c1ccccc1F (stereo unspecified)	-1	1.0	4%	0.68	3.0	-0.7	5.7
CCCNC(=O)Cn1cc(S(=O)(=O)N2CCCC2)c(S(=O)(=O)N2CCCC2)c1	0	0.2	.	0.71	-1.5	3.7	-1.5
Cc1c(Cl)cccc1Nc1ncccc1C(=O)OCC(O)CO (stereo unspecified)	.	1.0	-3%	.	.	-1.3	.
Cc1nc2cc(C(=O)O)ccc2n1-c1ccccc1	13	0.8	-4%	0.74	-3.5	2.4	4.2
CC1(C)C(CO)=CC(=O)C2=C1SCC(=O)N2	-6	1.7	-2%	0.68	1.0	2.4	2.1
COc1cc(/C=C/C(=O)NCC(=O)N2CCC(N(C)CCN3CCOCC3)CC2)ccc1OC(C)C	-3	0.0	?	0.73	-1.6	3.3	-6.3
COc1ccccc1NC(=S)N/N=C/c1cccc(C)c1	7	1.8	1%	.	-2.2	-0.5	.
CCOc1ccc2[nH]c(=O)c(CN(CCO)C(=O)c3ccc(F)cc3)cc2c1	-10	0.3	-10%	0.66	-1.4	0.8	-37
CC(=O)c1sc(NC(=O)c2ccccc2C)nc1C	-7	1.3	-1%	0.71	-1.4	1.6	-0.4
Cc1[nH]c2ccccc2c1/C=C(\C#N)S(=O)(=O)c1ccccc1	-3	0.8	15%	0.67	1.8	3.3	3.8
CCCn1c(NC(=O)C2CCN(C(=O)c3ccc(F)cc3)CC2)nc2ccccc21	10	-0.9	.	0.69	-5.3	-1.1	-8.8
Cc1nc(SCC(=O)Nc2ccccn2)n[nH]1	-10	0.6	0%	0.7	2.6	-2.8	0.9
CCCCOc1cccc(C(=O)NC(=S)Nc2cccc(NC(=O)c3ccccc3Cl)c2)c1	-14	0.0	2%	0.73	-2.0	-3.8	5.9
CSc1nnnc2ccccc12	0	.	8%	0.66	-1.6	.	2.8
COc1ccc(-c2noc(CCCC(=O)NCCc3ccccc3)n2)cc1OC	-15	0.0	-7%	0.74	-1.4	1.7	4.2
Cc1ccc(C(=O)N/C(=C/c2ccc(N(C)C)cc2)C(=O)NCC2CCCO2)cc1 (stereo unspecified)	0	-0.1	.	0.65	0.4	-6.5	8.1
C[C@@]12C(=O)N(CC3CCCO3)CC(=O)N1[C@H]1c3ccccc3OC[C@@H]1[C@@H]2c1ccccc1 (stereo partly specified)	-2	-1.0	.	.	-5.9	0.1	2.0
Clc1ccccc1Cn1nnc(-c2cccs2)n1	2	0.2	-5%	0.72	1.8	0.7	4.7
S=C(NNC(=S)NC1CC2CCC1C2)NC1CC2C=CC1C2 (stereo unspecified)	7	0.4	0%	0.61	0.9	-5.6	0.5
O=C(NCc1cccs1)C1CCCN(S(=O)(=O)c2ccc3c(c2)OCO3)C1 (stereo unspecified)	1	0.5	-10%	0.72	1.8	0.8	6.6
N/C(=N\OC(=O)Cc1ccccc1)c1ccc([N+](=O)[O-])cc1	7	-0.3	-4%	.	0.1	2.0	.
Cc1ccc(C2NC(=O)Cc3ccccc32)cc1 (stereo unspecified)	6	1.4	-2%	0.69	0.3	3.1	-0.6
COc1ccc(N2CCN(C(=O)c3ccc(CNS(=O)(=O)c4ccc(C)cc4)cc3)CC2)cc1	3	0.1	.	0.64	-4.0	-1.6	3.4
CC(=O)N1CCN(C(=S)NCCc2ccccc2)CC1	-1	-0.1	2%	0.72	0.5	1.7	4.2
CC(C)n1ncc2c(C(=O)Nc3cccc(S(=O)(=O)N(C)C)c3)cc(C3CC3)nc21	25	-0.6	.	0.63	-2.2	0.3	0.7
COc1ccc(C(=O)OCC(=O)Nc2c(C)n(C)n(-c3ccccc3)c2=O)cc1OC	-2	.	.	0.66	2.8	.	4.8
Cc1ccc(C(=O)Nc2nccs2)s1	3	-2.0	-3%	0.59	-0.1	-2.7	1.0
CN1CCN(S(=O)(=O)c2ccc(N3CCN(c4ccccc4Cl)CC3)nc2)CC1	1	0.4	-3%	0.67	2.0	2.5	-2.5
Cc1ccnc(NC(=O)CCC(=O)N(CC(=O)NCc2ccc(F)cc2)c2ccc(F)cc2)c1	2	0.3	.	0.72	0.6	-0.2	1.5
Cc1ccc(-c2nnc(-c3cccnc3)o2)cc1	-3	-6.0	-1%	0.65	2.8	2.5	2.2
CN1C(=O)CC(NNC(=O)c2ccccc2)C1=O (stereo unspecified)	-7	-0.7	-4%	0.71	1.7	0.5	1.0
COc1ccc(S(=O)(=O)N(C)c2ccc(C(=O)NC3CC3)cc2)cc1	12	0.6	.	0.7	3.8	-1.2	0.6
O=C(CSc1ncccn1)N1CCN(C(=O)CSc2ncccn2)CC1	-5	0.6	7%	0.67	0.6	5.0	-0.6
CCCC(=O)c1ccc(N2CCCCCC2)c(F)c1	0	-0.9	5%	0.68	2.2	.	5.2
COc1ccc(C(=O)OCC(O)COC(=O)c2ccc(OC)cc2)cc1	3	0.6	.	0.63	0.5	-0.5	1.9
CCOc1ccccc1C1CC(c2cccc(NS(C)(=O)=O)c2)=NN1C(=O)c1ccccc1 (stereo unspecified)	3	0.6	-9%	0.69	-0.3	-1.3	1.7
CCn1c(=O)n(CC)c2cc(N3CCCC3)c(NC(=O)c3ccc(C)cc3)cc21	5	-0.1	.	0.71	1.7	3.9	-0.5
O=C(c1cccc(Cl)c1)N1CCC(=O)N(C(COCc2cccc(Cl)c2)Cc2ccccc2)CC1 (stereo unspecified)	19	2.9	-11%	0.69	-1.9	5.5	1.9
CCN1C(=O)c2cccc3c(S(=O)(=O)N(C(C)=O)c4ccc(OC(C)=O)cc4)ccc1c23	-4	-1.0	.	0.71	3.7	5.0	-373
COc1ccc2[nH]c(C(=O)N(C)c3ccc(F)cc3F)cc2c1	10	0.3	4%	0.62	-0.6	0.7	-4.1
FC(F)(F)c1cccc(NCc2n[nH]c(=S)n2C2CCCCC2)c1	9	0.0	-2%	0.66	-2.3	-4.2	5.8
COc1ccc(OC)c(NC(=O)CCN2CC(C)OC(C)C2)c1 (stereo unspecified)	-1	-0.2	3%	0.74	-0.8	1.7	-0.3
CCCCn1c(N)c(N(CCOC)C(=O)c2cc(S(=O)(=O)N3CCOCC3)ccc2F)c(=O)[nH]c1=O	6	0.1	-7%	0.66	-3.9	7.8	3.8
CN(CC(=O)Nc1sccc1C(N)=O)S(=O)(=O)c1ccc(Cl)cc1	5	0.2	.	0.67	1.3	-0.7	2.8
COc1ccc(C)cc1NC(=O)C(OC(=O)c1cnccn1)c1ccccc1 (stereo unspecified)	-8	0.7	0%	0.7	3.2	-6.3	1.9
CCCCCC(=O)O/N=C(\C)c1ccn(S(=O)(=O)c2ccccc2)c1	-10	0.0	0%	.	3.1	-2.9	.
O=C(NCCc1ccccc1)/C(=C\c1ccc([N+](=O)[O-])cc1)NC(=O)c1ccccc1	-5	-0.1	1%	0.7	1.1	0.1	5.5
CC(c1ccccc1)n1cc(C(=O)NCc2cccnc2)nn1 (stereo unspecified)	0	0.9	?	0.72	1.4	1.4	-1.9
O=C1c2ccccc2C(=O)N1CCCc1nc(-c2ccc(Cl)cc2)no1	-6	0.1	-6%	0.73	-1.8	-3.2	4.0
CCSc1cnc(-c2ccccc2)n1CC	1	1.2	20%	0.61	-3.5	0.0	2.5
OCC1(Cc2ccccc2)CCCN(Cc2cn[nH]c2-c2ccccc2)C1 (stereo unspecified)	6	0.6	6%	0.67	-4.7	-5.3	3.3
COc1ccc(NC(=O)CSc2nnc(Cc3cccn3C)n2-c2ccc(F)cc2)cc1	-7	0.9	2%&-2%	0.67	-3.7	1.8	3.9
CC(C)=CC1C(C(=O)Nc2ccc(S(=O)(=O)N3CCOCC3)cc2)C1(C)C (stereo unspecified)	7	-0.2	-4%	0.63	-1.2	.	1.4
(list continues)
SMILES	B2AR ag	A1 inh	Vif TR-FRET	E coli growth	HNF4A DNA FP	LANA-H2A inh	UCH37 DUB inh
COc1cc(-c2nccc3cc4c(cc23)OCO4)cc(OC)c1OC	-3	.	-7%	0.69	4.7	.	4.1
Cc1cc2ncn(-c3ncnc4sc(C)c(C)c34)c2cc1C	0	0.5	10%	0.72	-3.5	-3.2	0.2
CCN1CCN(S(=O)(=O)c2cc(OC)c(Cl)cc2OC)CC1	6	-0.4	11%	0.68	1.8	0.4	-2.9
Fc1cccc(/C=N/Nc2nncc3ccccc23)c1	-19	-7.8	-5%	.	2.8	1.1	.
O=C(O)CCc1ccc(-c2ccc(F)cc2)n1CCC(=O)O	5	0.4	5%	0.66	1.9	0.9	-4.5
Cc1ccc2c(c1)N(C(C)C(=O)NCc1ccc3c(c1)OCO3)C(=O)CO2 (stereo unspecified)	-4	0.4	-11%	0.68	3.8	-7.3	2.8
CC1CCN(C(=O)CN(c2cccc(F)c2)S(C)(=O)=O)CC1	-4	0.3	.	0.68	-3.5	-2.1	0.7
CCC(C(=O)OCC(=O)Nc1cc(C)ccc1OC)c1ccccc1 (stereo unspecified)	-1	-0.1	-6%	0.69	-3.0	-1.0	4.0
Cc1nnc2c3ccccc3c(Cl)nn12	1	0.9	-14%	0.63	-3.5	-5.1	-5.7
CCN(CC)CCCNC(=O)c1cn(CC)c2cc(N3CCN(C(=O)c4ccco4)CC3)c(F)cc2c1=O	-7	0.5	1%	0.065*	2.4	0.0	-176

Profiles as entered above.
`Fc1cccc(/C=N/Nc2nncc3ccccc23)c1` in the list: B2AR ag = -19; A1 inh = -7.8; Vif TR-FRET = -5%; E coli growth = .; HNF4A DNA FP = 2.8; LANA-H2A inh = 1.1; UCH37 DUB inh = .
`CCC(C(=O)OCC(=O)Nc1cc(C)ccc1OC)c1ccccc1` (stereo unspecified) in the list: B2AR ag = -1; A1 inh = -0.1; Vif TR-FRET = -6%; E coli growth = 0.69; HNF4A DNA FP = -3.0; LANA-H2A inh = -1.0; UCH37 DUB inh = 4.0
